# PrP 5UTR inh: inhibition of PrP 5' UTR reporter expression; cell-based PrP 5' UTR mRNA reporter, plate reader; inhibition, % (no concentration beside the values); 0.35% of 340,000 active; AID 488862;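 active means every replicate at 50% or more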;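 further: 0 = median of the neutral control wells; tested in H4 reporter cells; numbers are from one replicate; inactives centre near -14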
# RN4220 kill: kills Staphylococcus aureus RN4220; 0.33% of 330,000 active; S. aureus RN4220 growth, OD600, 16 h; inhibition, % (concentration not given with the values); AID 1259311;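 active means z-score of -3 or lower and OD600 up to 0.18 on both plates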;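 further: plate controls were untreated cells for no effect and reference antibiotic for full effect; stock transfer was 100 nL into about 80 µL; one replicate is shown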
# Mtb hypoxia inh: Mtb hypoxia fluorescent reporter inhibition | 0.1% of 300,000 active | fluorescence inhibition, % (test concentration not listed) | M. tuberculosis hypoxia-regulated fluorescent reporter, fluorescence;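 active means 35 to 45% if threefold the growth effect, above 45% if 1.5-fold the growth effect; inactive means the rest, general growth blockers included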;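 further: wells of about 50 µL received 100 nL stock; 0% = vehicle wells and 100% = reference inhibitor wells; whole bacteria with a GFP reporter of the hypoxia response; strong numbers were not always called active; many hits fall short of the cut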
# BJeLR viability: BJeLR cell viability loss; BJeLR (HRASV12) viability, CellTiter-Glo ATP luminescence, 48 h; reference of the scale not given here; 0.17% of 300,000 active; inhibition, % (concentration not given with the values);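 active means replicate mean above 50%; inconclusive means above 50% but judged a plate artefact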;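 further: 50 nL library stock added to about 25 µL; numbers are from one replicate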
# ugtP null kill: growth inhibition of S. aureus ugtP deletion strain; S. aureus RN4220 ugtP deletion, OD600 growth, 16 h; some inactives read as strong as hits; growth inhibition, % (test concentration not listed); 0.54% of 330,000 active; AID 1259309;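 active means z-score under -3 and OD600 up to 0.15 on both plates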;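 further: plate controls were untreated wells for no effect and antibiotic for full effect; wells of about 80 µL received 100 nL stock; the first replicate is given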
# Autofluor counter: flagged as autofluorescent in microsphere protease counterscreen; compound autofluorescence counterscreen, microsphere flow cytometry; stronger effect = higher value; fluorescence intensity (test concentration not listed); 3.1% of 360,000 active; AID 624483;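 active means at least 3 SD above the mean of all compounds, about 16000 in these data; inconclusive means too few beads counted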;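 further: 100 nL of 1 mM stock went into each well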
# Mtb hypoxia inh growth: second read-out of Mtb hypoxia inh, no call of its own (marks repeat the call); growth inhibition, %; measured here: M. tuberculosis growth (absorbance);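 0% = vehicle and 100% = reference antibiotic; read after six days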
# Starred values were filed as active, the others as inactive; ? = inconclusive; nt = no result given.
SMILES,PrP 5UTR inh,RN4220 kill,Mtb hypoxia inh,Mtb hypoxia inh growth,BJeLR viability,ugtP null kill,Autofluor counter
Cn1cccc1C=NNC(=O)c1sc2ccccc2c1Cl,nt,-17,3,6,nt,-11,nt
O=[N+]([O-])c1ccc(NC(=S)N2CCc3ccccc3C2)cc1,-22,-2.6,4,3,13,-12,2082
COc1ccc(CNC(=O)c2ccc(S(=O)(=O)N3CCOCC3)cc2)cc1,-31,2.0,11,0,nt,2,?
COc1ccc(CNC(=O)/C=C/c2cc([N+](=O)[O-])ccc2OC(F)F)cc1,4,2.8,4,6,7,5,16762*
O=C(Cc1ccc([N+](=O)[O-])cc1)N/N=C/c1ccc([N+](=O)[O-])o1,-15,nt,nt,nt,55*,nt,3338
C=C(C)C1(O)OC(=O)C=C1OC (stereo not drawn),6,nt,nt,nt,0,nt,5687
COC(=O)CNC(=O)C(Cc1c[nH]c2ccccc12)NC(=O)Oc1ccccc1 (stereo not drawn),-27,5.1,0,14,1,-4,3809
O=C(COc1ccc(-n2cnnn2)cc1)Nc1ccc(F)c(Cl)c1,-4,-3.5,3,-1,nt,-7,4133
CNC(=S)NCc1ccc(Cl)cc1,3,-0.8,nt,nt,5,5,4066
CCCC(C(=O)NC1CCCC1)N(C(=O)Cn1nnc(-c2ccc(C)o2)n1)c1ccccc1F (stereo not drawn),-26,-1.9,0,-7,-1,3,3355
O=C(CC1(O)C(=O)N(CN2CCOCC2)c2ccccc21)c1ccccc1 (stereo not drawn),-4,6.4,5,2,6,8,3532
CCn1cc(C(=O)NN)c(=O)c2cc(F)c(N3CCCCC3)cc21,-9,5.9,7,3,20,9,3097
Nc1cccc(/C=C/C(=O)O)c1,-12,6.6,10,0,3,4,3393
COc1ccccc1NS(=O)(=O)c1cccc(C(=O)N/N=C/c2ccc(OCC(=O)O)cc2)c1,9,nt,nt,nt,5,nt,3460
Cc1cc(C)c(NC(=O)C2CCC(=O)N2)c(C)c1 (stereo not drawn),-5,-1.8,5,1,-6,-8,4784
Cc1ccc(S(=O)(=O)N(C)CC(=O)NC2CCCC2)cc1,-10,0.4,nt,nt,4,1,4437
Cc1cc(C)c2c3c(sc2n1)C1(CCSCC1)C(C#N)=C(N)O3,-17,-1.6,16,11,-7,-18,13105
COc1ccc(NS(=O)(=O)c2cccc(C(=O)NNC(=O)c3cncc(Br)c3)c2)cc1,-20,2.4,0,0,-7,4,nt
C/C(CC(=O)Nc1ccc(Cl)cc1C(F)(F)F)=N\NC(=O)c1cccs1,-17,nt,nt,nt,-4,nt,4149
Oc1ccc(/C=N/N2CCCCC2)c(O)c1O,-10,nt,nt,nt,-7,nt,3651
O=C(NC(C(=O)c1ccccc1)n1cnccc1=O)c1ccccc1 (stereo not drawn),-17,4.3,nt,nt,4,2,3740
O=C1OC(c2ccccc2)=N/C1=C\N1CCCCC1,-80,0.5,4,7,-6,-5,9283
CC1CCCN(C(=O)Cn2nnc(-c3cccnc3)n2)C1 (stereo not drawn),-3,5.0,7,10,3,14,4302
COc1ccc(NC(=S)NCCc2ccccc2)c(OC)c1,nt,1.5,6,11,-11,-1,10846
COC(=O)c1c(C)[nH]c(C(=O)OCC(=O)c2ccc(C)s2)c1C,-51,5.9,14,11,nt,-6,3594
COC(=O)c1ccc2c(=O)[nH]c(COC(=O)c3c(-c4ccccc4Cl)noc3C)nc2c1,-15,6.9,6,7,2,-1,6284
COCCCn1c(Cc2csc(Nc3cccc(Cl)c3)n2)nnc1SCC(=O)OC1CCCCC1,-4,-6.7,10,5,14,-7,3006
CC1CCC(NC(=O)Cn2cnc3sccc3c2=O)CC1 (stereo not drawn),-23,3.8,6,8,nt,4,?
Cc1ccc(-c2noc(C3CCN(S(=O)(=O)c4ccc5c(c4)OCCO5)CC3)n2)o1,-10,1.7,-4,2,-14,13,15456
CN(CC(=O)Nc1ccccc1Cl)C(=O)COC(=O)c1ccc(=O)n(Cc2ccccc2)n1,-2,-1.8,-4,-11,-11,-2,6303
Cc1noc(C)c1S(=O)(=O)Nc1ccc(O)c2c(=O)cc(-c3ccccc3Cl)oc12,-14,4.4,5,6,-11,-12,3595
CCOC(=O)c1[nH]c2ccc(OC)cc2c1NC(C)=O,-21,2.7,-6,5,-13,-5,2936
Cc1nn(-c2ccccc2)c(Cl)c1C=NNC(=O)c1ccnn1C,nt,-1.7,1,-1,nt,-3,nt
COc1cccc(CN2CCNC(=O)C2CC(=O)NCC2CCOCC2)c1 (stereo not drawn),-10,4.5,13,10,-2,5,6029
COc1ccc(C=NNC(=S)Nc2cccc(C(=O)O)c2)cc1OC,nt,0.9,-10,-8,nt,3,nt
COc1ccc(C(=O)Nc2ccccc2N2CCCCC2)cc1[N+](=O)[O-],17,3.8,17,7,-4,-3,2055

# Next part; the last three above are carried over.
SMILES,PrP 5UTR inh,RN4220 kill,Mtb hypoxia inh,Mtb hypoxia inh growth,BJeLR viability,ugtP null kill,Autofluor counter
COc1cccc(CN2CCNC(=O)C2CC(=O)NCC2CCOCC2)c1 (stereo not drawn),-10,4.5,13,10,-2,5,6029
COc1ccc(C=NNC(=S)Nc2cccc(C(=O)O)c2)cc1OC,nt,0.9,-10,-8,nt,3,nt
COc1ccc(C(=O)Nc2ccccc2N2CCCCC2)cc1[N+](=O)[O-],17,3.8,17,7,-4,-3,2055
Cc1ccc(-n2c(N)c(Br)c(=O)[nH]c2=O)cc1C,-11,10,2,6,8,5,4398
COc1ccc(S(=O)(=O)NCCc2nnc3ccc(SCC(=O)Nc4cc(C)on4)nn23)cc1,-16,4.0,14,18,-9,13,2599
COC(=O)C(C)NC(=O)C(C)NC(=O)OCc1ccccc1 (stereo not drawn),1,-7.6,nt,nt,-2,1,2228
COc1ccc(-c2cc(C(=O)Nc3c(C)nn(Cc4ccccc4)c3C)no2)cc1,-4,1.7,1,12,0,6,24465*
O=C(CCc1ccc(S(=O)(=O)NCCc2ccccc2)cc1)Nc1ccc2c(c1)OCCO2,0,-7.5,6,2,-13,-10,2434
Fc1ccc(-c2oncc2-c2nnnn2-c2ccccc2)cc1F,-17,4.1,4,9,10,2,3441
CSc1ccc(C=NNC(=O)CN2CCN(Cc3ccccc3Cl)CC2)cc1,nt,4.3,0,5,nt,-7,nt
O=C(NC(=S)Nc1ccc(Cc2ccncc2)cc1)c1ccccc1F,-2,15,18,3,1,-1,3303
CCC(NC(=O)c1cc(COc2cncc(Cl)c2)on1)c1ccncc1 (stereo not drawn),-4,-3.7,-4,2,7,-4,5006
CCn1c(C)nc2cc(C(=O)NNC(=S)Nc3ccc(OC)cc3)ccc21,-19,0.4,0,-4,6,1,3443
COc1cccc(NC(=O)Cn2nnc(C(=O)NCCc3ccccc3)c2N)c1,-13,4.1,3,-8,-35,13,4262
COc1ccc(Sc2ncnc3onc(C)c23)cc1,-21,6.1,10,5,nt,1,3095

# Structures above that have a COOH group:
SMILES,PrP 5UTR inh,RN4220 kill,Mtb hypoxia inh,Mtb hypoxia inh growth,BJeLR viability,ugtP null kill,Autofluor counter
Nc1cccc(/C=C/C(=O)O)c1,-12,6.6,10,0,3,4,3393
COc1ccccc1NS(=O)(=O)c1cccc(C(=O)N/N=C/c2ccc(OCC(=O)O)cc2)c1,9,nt,nt,nt,5,nt,3460
COc1ccc(C=NNC(=S)Nc2cccc(C(=O)O)c2)cc1OC,nt,0.9,-10,-8,nt,3,nt

# Next section
SMILES,PrP 5UTR inh,RN4220 kill,Mtb hypoxia inh,Mtb hypoxia inh growth,BJeLR viability,ugtP null kill,Autofluor counter
Cc1ncc2n1-c1ccc(Cl)cc1C(c1ccccc1F)=NC2,1,4.8,nt,nt,nt,6,6474
O=C(NC1CCCC1)C(c1ccc(Cl)cc1)N(Cc1ccc(F)cc1)C(=O)CCl (stereo not drawn),-37,21,6,8,0,-4,2097
CC(=O)NC1=NN(C(C)=O)C2(S1)C(=O)N(CC(C)C)c1ccc(C)cc12 (stereo not drawn),-12,0.9,-2,1,-3,4,4572
NC(=O)CN1CC(c2ccccc2)CC1=O (stereo not drawn),-30,-14,11,3,-1,-6,2957
Cc1occc1-c1nnc(SCC(=O)c2ccc(Cl)cc2)n1CC1CCCO1 (stereo not drawn),7,5.5,nt,nt,3,-19,3692
CCCCn1nc2cc(C(=O)N[C@H](C)C3CCCCC3)ccc2c1OCC,-15,nt,nt,nt,4,nt,3581
O=C(CCc1ccccc1)Nc1ncc([N+](=O)[O-])s1,-62,10,-3,12,0,19,3982
Cc1cc([N+](=O)[O-])cc(C=Nn2c(C)nc3ccccc3c2=O)c1O,nt,-0.9,-7,4,nt,-5,nt
O=C(CSc1ccc(-c2cccnc2)nn1)c1ccc([N+](=O)[O-])cc1,-18,4.9,5,-19,11,5,3523
Clc1ccc(-c2csc(Nc3cccnc3)n2)cc1,-29,-5.1,8,13,3,-2,5257
O=C1CSC(c2ccc([N+](=O)[O-])cc2)N1CCN1CCCCC1 (stereo not drawn),-16,1.0,14,-1,-7,6,4170
O=C(COC(=O)c1cc2ccccc2cc1O)Nc1cccnc1Cl,-10,4.1,4,1,-2,-10,2544
COC(=O)c1ccc(C)c(NC(=O)C2COc3ccccc3O2)c1 (stereo not drawn),-33,6.2,7,3,-2,-6,9056
CCOc1ccc(-c2ccc(SCC(=O)NC3CCCCC3)nn2)cc1,-50,2.5,11,12,-6,11,4574
Fc1cc(Cl)ccc1NC(=S)NCCN1CCOCC1,8,7.5,7,5,9,6,3227
O=C(CSc1nn(-c2ccccc2)c(=S)s1)NC(=O)NCc1ccco1,-24,0.3,7,5,-12,13,23530*
CCN1CCc2c(sc(NC(=O)c3ccc(S(=O)(=O)N4CCCC4)cc3)c2C(=O)NC)C1,-10,1.3,7,9,0,12,?
CCOC(=O)c1c(C)nc(C(Cl)(Cl)Cl)nc1N,-16,8.7,0,3,1,-1,4158
CCC(=O)N1CCc2cc(Br)cc(S(=O)(=O)NCC3CCCO3)c21 (stereo not drawn),9,5.3,11,18,-11,3,3929
CCOc1ccc(CCNC(=O)COC(=O)c2ccc(Br)o2)cc1OCC,-8,0.5,-10,-8,4,2,?
Cc1cc(C(=O)CSc2nnnn2-c2ccc(O)cc2)c(C)n1Cc1ccc2c(c1)OCO2,-12,41,8,8,-11,-25,9887
COc1cc(C(=O)Nc2nc(-c3ccc(C)cc3)cs2)ccc1OCC(=O)N1CCOCC1,-14,1.8,20,6,6,-4,2606
CNC(=O)CSc1nnc(-c2ccco2)n1-c1ccccc1OC,nt,3.7,8,8,14,-4,7903
O=C(NN=C1CCN(Cc2ccccc2)CC1)c1cc(Br)ccc1O,-11,13,5,5,1,2,2211
c1ccc2c(c1)OCC(c1nn3c(Cn4nnc5ccccc54)nnc3s1)O2 (stereo not drawn),-6,4.0,7,-4,9,7,16268*
Cc1ccc(C(=O)NN2C(=O)C3C(C2=O)C2C=CC3C23CC3)cc1 (stereo not drawn),-13,12,8,-1,-3,1,3392
CCCNc1nc(OC(C(F)(F)F)C(F)(F)F)nc(OC(C(F)(F)F)C(F)(F)F)n1,-19,8.5,5,14,-2,3,6828
Cc1ccc2c(ccc[n+]2CC(=O)c2ccccc2)c1,-10,0.5,16,10,6,1,3508
O=C1NC(=S)S/C1=C/c1ccc(Oc2cnccn2)cc1,-10,42,1,4,5,37,2352
CCN1CCN(C(=O)NCc2ccccc2)CC1,-21,-1.5,-16,12,-5,-6,4605
Cc1csc(N(C)C(=O)CSc2nnc(COc3ccccc3C)o2)n1,-18,1.7,3,5,12,-18,4326
O=C(CN1CC(=O)Nc2ccccc21)NCCc1ccc(Cl)cc1Cl,-14,-7.0,5,17,6,0,4398
Cc1ccc(NC(=O)N2CCC(NC(=O)C(C)(C)C)CC2)cc1,-6,-2.7,-2,5,-2,-2,3196
CC(=O)N1CCN=C1SCc1c(F)cccc1Cl,-7,1.5,nt,nt,1,6,5651
O=C1CC(N2CCC(c3nc4ccccc4[nH]3)CC2)C(=O)N1Cc1ccccc1 (stereo not drawn),-12,4.0,0,3,4,4,8056
O=C(C1=C[C@H](C2CC2)C[C@H](OCc2ccc(CO)cc2)O1)N1CCOCC1,-3,nt,nt,nt,7,nt,2926
COc1cc(OC)c(OC)cc1/C=N/NC(=O)CC1C(=O)NN=C1C (stereo not drawn),-17,nt,nt,nt,5,nt,4794
COC1CCN(C(=O)c2ccc3oc(C(C)C)nc3c2)CC1,-15,5.8,11,3,3,11,6234
